# Anthrax LT inh = anthrax lethal toxin internalization inhibition. AID 912. Potency, µM (doses to about 40 µM), for the others: at the top dose activity change, negative = inhibition, most hits filed as inhibitors. Cells, anthrax lethal toxin internalization, FRET ratio (460/530). actives 0.67% (n = 70,000); active = well fitted falling ratio curve with the 530 nm signal flat; inconclusive = other ratio curves, or a change in one channel alone; inactive = flat curves in the ratio and both channels; the % refers to the ratio; also: % is scaled to controls: 0 for no effect and ±100 for the full control effect; nearly all actives have a fitted effect of over 50% in size; tested in ME-180 cells; beta-lactamase reporter
# Prx2 Sm inh = blocks S. mansoni peroxiredoxin 2 enzymatic activity. S. mansoni Prx2 activity coupled to TGR/GSH (TGR is thioredoxin glutathione reductase), NADPH fluorescence loss, qHTS; some inactives read as strong as hits. Potency, µM. actives 0.07% (n = 65,000). AID 448; active means full or partial inhibition curve with a strong effect at the top dose; inconclusive means weaker partial or single-point curve; inactive means no accepted curve; also: series up to 57 µM; many of its hits are not listed in these tables
#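 Prx2 inhibition was measured as reduced NADPH consumption when electrons flowed from NADPH through TGR and glutathione to Prx2 and H2O2. Plates were read kinetically over 8 min; enzyme reagents were held at 4 deg C during dispensing.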
# * marks the source's active call; other numbers are inactive results; ? = inconclusive; nt = not tested or not shown; & = joins results of further samples; [ ] = another dose, or the depositor's remark. Potency is read from the fitted curve at half-maximal effect.
SMILES,Anthrax LT inh,Prx2 Sm inh
O=C(O)c1sccc1S(=O)(=O)Nc1ccccc1N1CCCCC1,-9%,nt
O=C(CSc1nnc(COc2ccccc2)o1)NCCc1ccccc1,?,>57
CCOc1ccccc1NC(=O)CSc1nc2cccnc2n1C,-18%,>57
NCCC[C@H](N)CC(=O)N[C@H]1CNC(=O)[C@@H]([C@@H]2C[C@H](O)N=C(N)N2)NC(=O)/C(=C/NC(N)=O)NC(=O)[C@@H](CO)NC(=O)[C@@H](CO)NC1=O,-1%[3.58 µM],>57
O=C(NCCN1C(=O)C2C3C=CC(C3)C2C1=O)Nc1ccccn1 (configuration not stated),-3%,>57
O=C(CN1CCC(n2nnc3cc(F)ccc32)CC1)Nc1ccc2c(c1)CCC2,-9%,>57
CCN(CC)C(=O)c1ccc(NC(=O)c2cc(-n3cnnc3)ccc2Cl)cc1,-4%,>57
N#Cc1c(NC(=O)CSCC(=O)O)sc2c1CCCC2,-6%,>57
Cc1cc(C)n2nc(Nc3ccccc3)cc2n1,-11%,>57
CSc1cccc(NC(=O)C2CCCN(S(=O)(=O)c3ccc(F)cc3)C2)c1 (configuration not stated),-24%,>57
CCN1CCN(C(=O)CN(C)S(=O)(=O)c2ccc(OC)cc2)CC1,-1%,>57
CCC(=O)Nc1cccc(NC(=O)c2ccc3c(c2)OCO3)c1,12%,>57
Nc1c(N2CCCCC2)c(=O)[nH]c(=O)n1-c1ccccc1,-7%,>57
Cc1cccc(-n2c(CCN3C(=O)c4ccccc4C3=O)nc3ccccc3c2=O)n1,15%,>57
O=C(NCCN=C1NS(=O)(=O)c2ccccc21)c1ccc(S(=O)(=O)N2CCOCC2)cc1,3%,>57
CCOC(=O)/C=c1\s/c(=C\c2ccccc2OC)c(=O)n1CC(=O)N1CCOCC1,6%,>57
CCN1CCN(c2nc(SC)nc3sc4c(c23)CC(C)(C)OC4)CC1,-25%,>57
Cc1cc(C)n(-c2ccc(C(=O)NC3=NCCS3)cc2)n1,-2%,>57
CCCCOc1ccc(Cl)cc1CSc1nnc(CC)n1N,-5%,>57
Clc1ccccc1-c1nn2c(Cn3cnc4ccccc43)nnc2s1,?,>57
O=C(Nc1ccc(Cl)cc1)N1CCC(c2nc(-c3cccs3)no2)CC1,-36%,>57
Cc1cc(C(=O)CC#N)c(C)n1CC(F)(F)F,-3%,>57
CCOC(=O)C1CCCN(C2CC(=O)N(c3cccc(C(F)(F)F)c3)C2=O)C1 (configuration not stated),-2%,>57
CCn1cc(C2=NOC(C(=O)Nc3c(C)nn(Cc4ccc(F)cc4)c3C)C2)c(C)n1 (configuration not stated),-1%,>57
CCCNc1nc2c(c(=O)[nH]c(=O)n2C)n1Cc1ccc(F)cc1,14%,>57
# Remaining list, next part
SMILES,Anthrax LT inh,Prx2 Sm inh
COC(=O)c1ccccc1S(=O)(=O)N(CCCO)Cc1cc2c(C)ccc(C)c2[nH]c1=O,-9%,>57
CCc1cccc(NC2c3ccccc3C(=O)N2c2ccc(C)cn2)c1 (configuration not stated),?,>57
COc1ccc(-c2ccc(SCC(=O)NCc3ccco3)nn2)cc1,-2%,>57
O=C(CC12CC3CC(CC(C3)C1)C2)NCO,-3%,nt
Cc1nnc(NC(=O)c2ccc3c(c2)C(=O)N(CC2CCCO2)C3=O)s1 (configuration not stated),-16%,>57
O=C(c1ccc(F)cc1)C1CCN(C(=O)N2CCOCC2)CC1,-13%,>57
C=C(CC(=O)OC)C[C@]1(CC(=O)OC)CC2(CC=C(C)C)C(=O)C(C(=O)c3ccccc3)=C(OC(=O)c3ccc(Br)cc3)C(CC=C(C)C)(C1)C2=O (some centres not stated),1%[8 µM],nt
CCSc1ccccc1C(=O)Nc1cc(C)on1,-26%,>57
Cc1cccc(C)c1NC(=O)CS(=O)CC(=O)NC1CCN(Cc2ccccc2)CC1 (configuration not stated),-18%,>57
Cc1cc(Nc2cccc(Cl)c2C)n2ncnc2n1,-2%,>57
Cc1ccc(-c2nc(NC(=O)CSc3nnc(C)s3)ns2)cc1,-12%,>57
CCOc1ccc(-c2nnc(SCc3nnc(-c4ccccc4)o3)n2-c2ccccc2F)cc1,-18%,>57
CCC(C)C(=O)N1CCc2cc(-c3csc(N)n3)ccc21 (configuration not stated),-6%,>57
COc1ccc(NC(C)=O)cc1NC(=O)CN1CCN(S(=O)(=O)c2ccc(C(C)C)cc2)CC1,2%,>57
O=C(CN1C(=O)c2ccccc2C1=O)Nc1nnc(C2CCCO2)s1 (configuration not stated),-6%,>57
Cc1ccc(NC(=O)c2cc(-c3ccco3)on2)cc1C,-13%,>57
CC1Cc2cc(/C(O)=C3/C(=O)C(=O)N(CCN4CCOCC4)C3c3cccc(O)c3)ccc2O1 (configuration not stated),7%,>57
O=C(Nc1cccc(Cl)c1Cl)c1ccncc1,-2%,nt
CC(C(=O)N1CCN(C=O)CC1)N1C(=O)c2ccccc2C1=O (configuration not stated),-6%,>57
C=CCNC(=O)Nc1ccc(OCC)cc1,3%,>57
CNC(=O)OCC[N+](C)(C)C,2%,>57
O=C(NC1CCN(Cc2ccccc2)CC1)C1CCCN(c2nnc(-n3cccc3)s2)C1 (configuration not stated),?,>57
CCSc1cc(C2C(C#N)=C(N)OC(C)=C2C(=O)OC)c(C)o1 (configuration not stated),22%,>57
CCC(C)NC(=O)CN(c1ccc2c(c1)OCO2)S(=O)(=O)c1c(C)n[nH]c1C (configuration not stated),-3%,>57
O=C(O)Cc1nn(Cc2ccc(Br)cc2F)c(=O)c2ccccc12,?,>26

# One compound at a time, as listed above. Order of screens: Anthrax LT inh | Prx2 Sm inh
# O=C(O)c1sccc1S(=O)(=O)Nc1ccccc1N1CCCCC1 is listed as -9% | nt
# COC(=O)c1ccccc1S(=O)(=O)N(CCCO)Cc1cc2c(C)ccc(C)c2[nH]c1=O is listed as -9% | >57

# Copied from above (two entries):
SMILES,Anthrax LT inh,Prx2 Sm inh
COC(=O)c1ccccc1S(=O)(=O)N(CCCO)Cc1cc2c(C)ccc(C)c2[nH]c1=O,-9%,>57
CCc1cccc(NC2c3ccccc3C(=O)N2c2ccc(C)cn2)c1 (configuration not stated),?,>57

# Remaining list, next part
SMILES,Anthrax LT inh,Prx2 Sm inh
c1cnc2c(c1)ccc1cccnc12,0%[8 µM],>57&>57
Cn1c(=O)cc(OCC(=O)Nc2ccccn2)c2ccccc21,1%,>57
CCn1c(NCc2cc(OC)ccc2OC)nc2ccccc21,-10%,>57
c1ccc(CN2CCC3(CCCc4ccccc43)CC2)cc1,6%,>57
CCOC(=O)c1ccc2c(c1)nc(SCC(=O)N1CCCCC1)n2CC,1%,>57
Cc1cccc(OCC(O)CN2C(C)(C)CC(O)CC2(C)C)c1 (configuration not stated),4%,>57
O=C(Nc1ccccc1)N1CCC2(CC1)CCN(C(=O)Oc1ccccc1)CC2,-6%,>57
COc1cc(S(=O)(=O)N2CCCCC2)ccc1NC=O,9%,>57
Clc1cccc(Nc2c3c(nc4ncnn24)CCC3)c1,-14%,>57
CC(NC(=O)C1CCCN(S(=O)(=O)c2cnc[nH]2)C1)c1ccccc1 (configuration not stated),1%,>57
O=C(c1csc2c1CCCC2)N1CCN(c2ccccc2)CC1,-1%,>57
COC(=O)c1ccccc1NC(=O)Nc1cc(C)cc(C)n1,11%,>57
O=C(c1ccccc1)N(c1ccccc1)C1C=CS(=O)(=O)C1 (configuration not stated),1%,>57
COc1cc(OC)c(C(=O)Nc2ccc(S(=O)(=O)Nc3ncccn3)cc2)cc1OC,7%,>57
COCCn1nnnc1C(c1cccs1)N1CCN(c2nc3ccccc3s2)CC1 (configuration not stated),-9%,>57
CCN(CCCNC(=O)CCn1c(=O)[nH]c2ccccc2c1=O)c1ccccc1,4%,>57
N[C@@H](Cc1ccc(N(CCCl)CCCl)cc1)C(=O)O,17%,nt
COc1ccc(N2CCN(Cc3nc(-c4ccc(Cl)cc4Cl)no3)CC2)cc1,-6%,>57
COC(=O)c1cn(NC(=O)c2ccncc2)c(=O)c2ccccc12,-3%,>57
O=C(NC1CCCCC1)C1CCN(c2nnnn2-c2ccccc2)CC1,0%,>57
C=CCn1c(=O)/c(=C/c2ccc(F)cc2)s/c1=C(\C#N)c1nnc2n1CCCCC2,?,>57
Cc1ccc(S(=O)(=O)NCCSc2nnnn2-c2ccc(C(N)=O)cc2)cc1,-2%,>57
OCCN1CCN(CCSc2ccccc2)CC1,-11%,>57
COc1cc2nc(CN3CC=C(c4ccccc4)CC3)[nH]c(=O)c2cc1OC,6%,>57
C=CCn1c(SCC(=O)Nc2ccc(C(=O)OC(C)C)cc2)nnc1-c1cccs1,1%,>57
# Carrying on.
SMILES,Anthrax LT inh,Prx2 Sm inh
Cc1cc2oc(=O)cc(CN3CCN(S(=O)(=O)c4ccc5c(c4)OCCO5)CC3)c2cc1C,-1%,>57
Cc1cc(=O)oc2cc(NC(=O)CCCC(=O)O)ccc12,14%,>57
C/C(Cl)=C/Cn1c(SCc2ccc(Cl)cc2)nc2c1c(=O)[nH]c(=O)n2C,?,>57
CCOC(=O)N1CCN(CC(=O)Nc2cc(C)nn2-c2nc3ccccc3s2)CC1,?,>57
CC(C)(CSc1nncn1/N=C/c1ccco1)NS(=O)(=O)c1ccc(Cl)cc1,-3%,>57
CCOC(=O)c1c(NC(=O)CSc2nnc(CN3CCOCC3)n2C)sc2c1CCCC2,8%,>57
Cc1cccc(-c2noc(Cc3ccc(Cl)cc3)n2)c1,-18%,>57
CCN(CC)c1ccc(NC(=O)CSc2nc(C)cc(=O)[nH]2)cc1,2%,>57
CCOC(=O)C1CCCN(c2c(NCCc3ccc(S(N)(=O)=O)cc3)c(=O)c2=O)C1 (configuration not stated),0%,>57
CCOC(=O)CSc1nc2ccccc2c(=O)n1CCN1CCOCC1,3%,>57
COC(=O)C1=C(C)N(c2ccc(OC)c(OC)c2)C(=O)C1,-10%,>57
O=C(CSc1nc2c(cnn2-c2ccc(F)cc2)c(=O)[nH]1)N1CCCc2ccccc21,1%,>57
COc1cc(CO)cc(Br)c1OCC(=O)O,4%,>57
CCCc1nc2oc3c(NCc4ccccn4)ncnc3c2c2c1COC(C)(C)C2,?,>57
CC(=O)Nc1ccccc1-c1ccc(C)o1,11%,>57
Cc1noc(C)c1-c1cc(N(C)C)ncn1,1%,>57
Cc1ccccc1-n1c(SCC(=O)NCc2cccs2)nnc1-c1ccncc1,7%,>57
Cn1nnnc1SCC(=O)Nc1cc(C(C)(C)C)nn1-c1ccccc1,-1%,>57
Cc1cc(OC(=O)c2ccc(S(=O)(=O)N(C)C)cc2)cc(=O)o1,4%,>57

# Of the compounds above, these have a thiophene ring, fused or not.
SMILES,Anthrax LT inh,Prx2 Sm inh
O=C(O)c1sccc1S(=O)(=O)Nc1ccccc1N1CCCCC1,-9%,nt
N#Cc1c(NC(=O)CSCC(=O)O)sc2c1CCCC2,-6%,>57
CCN1CCN(c2nc(SC)nc3sc4c(c23)CC(C)(C)OC4)CC1,-25%,>57
O=C(Nc1ccc(Cl)cc1)N1CCC(c2nc(-c3cccs3)no2)CC1,-36%,>57
O=C(c1csc2c1CCCC2)N1CCN(c2ccccc2)CC1,-1%,>57
COCCn1nnnc1C(c1cccs1)N1CCN(c2nc3ccccc3s2)CC1 (configuration not stated),-9%,>57
C=CCn1c(SCC(=O)Nc2ccc(C(=O)OC(C)C)cc2)nnc1-c1cccs1,1%,>57
CCOC(=O)c1c(NC(=O)CSc2nnc(CN3CCOCC3)n2C)sc2c1CCCC2,8%,>57
Cc1ccccc1-n1c(SCC(=O)NCc2cccs2)nnc1-c1ccncc1,7%,>57

# Compound activity from PubChem BioAssay.

# These rows are one share of the data. The share of hits here may be higher or lower than overall.
